# Rango dissoc inh = prevents RanGTP from dissociating the Rango-importin beta complex; O95149+P62826; Biochemical FRET Rango-importin beta, RanGTP-induced dissociation; Potency, µM (doses to about 46.1 µM), without a hit: at the top dose activity change, negative = inhibition; 340,000 tested, 0.071% active; AID 540253; active means falling FRET ratio curve, often poorly fitted, with flat reads before Ran was added; inconclusive means other falling curves, or compound fluorescence or quenching; inactive means flat or rising ratio curve;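 note: potency is the fitted concentration of half-maximal effect; % of control where 0% means no effect; nearly all actives have a fitted effect of over 45% in size; -100% = wells without RanGTP and RCC1; the record marks most hits as doubtful in a second field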
#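 Rango FRET biosensor (snurportin-1 IBB flanked by N-terminal EYFP and C-terminal CFP10) at 0.1 uM, with 0.25 uM importin beta in PBS, 1mM DTT, 0.02% Tween-20, 0.1% BSA. 0.6 uM Ran, 2mM GTP and 0.2 uM RCC1 were then added for 45 min at room temperature. Inhibition read as loss of FRET rise.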
# GLA inh pH 4.5 = alpha-galactosidase A (human) inhibition, pH 4.5. P06280. purified enzyme, 4-MU-alpha-Gal fluorescence, pH 4.5. activity change, negative = inhibition, % at 105 µM. 230,000 tested, under 10 active. AID 1467; inconclusive = small, poorly fitted or top-dose-only inhibition, or a rising curve; inactive = flat fitted curve, though single readings scatter; no compound was filed as active;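 note: 0% = full activity with enzyme and -100% = basal without enzyme; dose as in the result columns while the protocol names 77 µM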
# Target sequence (P06280 whole entry, looked up): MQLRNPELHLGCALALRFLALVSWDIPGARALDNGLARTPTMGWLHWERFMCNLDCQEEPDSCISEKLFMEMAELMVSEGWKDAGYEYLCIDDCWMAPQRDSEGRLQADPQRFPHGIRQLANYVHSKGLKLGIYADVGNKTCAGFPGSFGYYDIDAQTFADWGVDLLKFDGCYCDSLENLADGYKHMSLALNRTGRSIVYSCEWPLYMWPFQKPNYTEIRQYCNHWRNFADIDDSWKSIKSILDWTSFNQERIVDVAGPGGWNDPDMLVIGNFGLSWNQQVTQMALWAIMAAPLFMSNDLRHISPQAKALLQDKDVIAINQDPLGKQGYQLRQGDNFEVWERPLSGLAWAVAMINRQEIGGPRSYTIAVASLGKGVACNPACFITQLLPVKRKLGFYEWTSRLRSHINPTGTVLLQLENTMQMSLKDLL
# Rango-impB inh = prevents formation of the Rango-importin beta complex | Rango CFP/YFP FRET sensor + importin beta, 45 min | Potency, µM (highest dose often 92.2 µM), inactives show at the highest dose inhibition of complex formation | 340,000 tested, 0.031% active | AID 540263; active = rising FRET ratio curve, often small or poorly fitted; inconclusive = mostly compound fluorescence or quenching in the first reads; inactive = flat curves in all reads;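 note: potency is the fitted concentration of half-maximal effect; 0% = DMSO wells and 100% = buffer wells lacking importin beta; nearly all actives have a fitted effect of over 15% in size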
#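 FRET biosensor Rango (snurportin 1 IBB between N-terminal EYFP and C-terminal Cerulean), 50 nM in PBS/1 mM DTT/0.02% Tween-20/0.1% BSA, preincubated 5 min RT with compound; 0.125 microM importin beta added, 45 min RT, CFP/YFP FRET ratio read.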
# miR-21 FLuc = miR-21 reporter, rising signal | HeLa miR-21 FLuc reporter, luciferase, 48 h | Potency, µM (highest dose often 38.3 µM), without a hit: at the highest dose reporter change, positive = more light | 340,000 tested, under 10 active | AID 2288; active = well fitted rising curve with a large enough effect; inconclusive = small, poorly fitted or top-dose-only effect; inactive = no such curve, though single readings can be large or run the other way;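 note: % of control where 0% means no effect; miR-21 action dims this reporter so a rising signal means less miR-21 action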
#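 Using DMEM plus 10% FBS, HeLa miR-21-FLuc cells are incubated with test compounds (final up to about 40uM) for 48 hours; firefly luciferase signal is then imaged following reagent-mediated lysis.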
# The depositor's hits bear a star; ? = inconclusive; . = not tested or not shown; & = joins results of further samples. Not all compounds are listed; count on the stated rates, not on these rows.
entry | Rango dissoc inh | GLA inh pH 4.5 | Rango-impB inh | SMILES | miR-21 FLuc
1 | 5% | . | -6.3% | Cn1c(=O)n(Cc2ccccc2)c(=O)c2c1nc1n2CCCN1C1CCCCC1 | .
2 | -1% | 8 | 4.8% | O=C(O)C1Cc2ccccc2CN1C(=O)COc1ccc(Br)cc1 (configuration not stated) | -1%
3 | 0% | 0 | 0.0% | CCN(CC)S(=O)(=O)c1cc([N+](=O)[O-])ccc1N1CCC(C(N)=O)CC1 | -16%
4 | 1% | . | -0.9% | Cc1cc([N+](=O)[O-])nn1CC(=O)NCc1ccc(Cl)cc1 | 0%
5 | -19% | 6 | -5.5% | CC1=C(C(=O)OCc2ccccc2)C(c2ccsc2)NC(=O)N1C (configuration not stated) | 2%
6 | -2% | 6 | 1.2% | Cn1ncc(Br)c1N1C(=O)CCC1=O | 3%
7 | 0% | 2 | -2.3% | CCOC(=O)c1nsnc1NCCSC(=N)N | -8%
8 | -11% | . | -4.9% | O=C(NCCCN1CCCCC1)c1ccc(CS(=O)c2ccc(F)cc2)o1 (configuration not stated) | -3%
9 | 0% | -2 | 1.8% | Cc1ccccc1NC(=O)Cn1nnc(C(=O)NCc2ccco2)c1N | 19%&15%
10 | 9% | . | 1.4% | Cc1cc(C)cc(OCCNC(=O)c2cc(S(=O)(=O)N3CCOCC3)ccc2F)c1 | 21%
11 | 12% | 3 | 0.4% | NNC(=O)c1cc(-c2cccs2)nc2ccccc12 | 19%
12 | ? | . | ? | COc1cc2c(cc1OC)-c1cc(Nc3ccc(C(=O)O)cc3)nc(=O)n1CC2 | -16%
13 | -8% | 1 | 33µM* | COc1ccc2c(C)cc(SCC(=O)N3CCOCC3)nc2c1 | -1%
14 | -15% | -3 | -0.6% | COc1ccc(CCNC(=O)C23CCC(C)(C(=O)C2Br)C3(C)C)cc1OC (configuration not stated) | -1%
15 | -11% | . | -0.6% | Cc1cc(NC(=O)c2ccccc2F)cc(C)c1OCC(=O)N1CCOCC1 | -19%
16 | -7% | -8 | ? | COCCNC(=O)COC(=O)c1cc(-c2ccc(OC)cc2)nc2ccccc12 | -3%
17 | -33% | . | 0.5% | O=C(CCC(=O)c1ccccc1)NCc1cccc(C(F)(F)F)c1 | .
18 | 0% | -5 | -0.8% | CC1CCN(c2nc(-c3ccccc3)cc(C(F)(F)F)n2)CC1 | -8%
19 | 6% | -2 | -0.8% | COc1ccccc1-c1coc2cc(OC(=O)N3CCOCC3)ccc2c1=O | -20%
20 | -3% | -4 | -0.2% | CC1=C(C(=O)N2CCN(C(=O)c3ccco3)CC2)C2(CCC(C)CC2)OC1=O (configuration not stated) | -6%
21 | 5% | 2 | 0.5% | CCOC(=O)c1ccc(N=C2NC(=O)CS2)cc1 | -7%
22 | 3% | 5 | 3.8% | COc1ccc(S(=O)(=O)N2CCN(c3c(C)cccc3C)CC2)cc1OC | 0%
23 | 2% | 2 | -0.7% | CC(C)NC(=O)c1ccc(-c2ccc(Cl)c(C(F)(F)F)c2)o1 | -1%
24 | -14% | 2 | -2.2% | COc1ccccc1C(=O)CSc1ccccn1 | -57%
25 | ? | . | 0.7% | Cc1cc(C(=O)C(C(c2ccccc2)N2CCOCC2)N2CCOCC2)ccc1Cl (configuration not stated) | .

# Results in sequence from the list.
# Rango-impB inh, compounds 19 to 25 → -0.8%, -0.2%, 0.5%, 3.8%, -0.7%, -2.2%, 0.7%

# Rango-impB inh, what is marked active above
entry | Rango dissoc inh | GLA inh pH 4.5 | Rango-impB inh | SMILES | miR-21 FLuc
13 | -8% | 1 | 33µM* | COc1ccc2c(C)cc(SCC(=O)N3CCOCC3)nc2c1 | -1%

# Later entries:
entry | Rango dissoc inh | GLA inh pH 4.5 | Rango-impB inh | SMILES | miR-21 FLuc
26 | -15% | . | -4.1% | COc1ccc(OCCn2cnc3ccccc32)cc1 | -18%
27 | 5% | -8 | -0.9% | Cc1c(C=C2C(=O)c3ccccc3C2=O)cc(C#N)n1C | 0%
28 | 30% | 4 | 0.0% | Cn1cccc1Cc1nnc(SCC(=O)NCc2ccco2)n1-c1ccc(F)cc1 | -3%
29 | -1% | . | 3.6% | Cc1cc(C(=O)O)ccc1NCc1ccncc1 | 0%
30 | 1% | 0 | 3.3% | COCCNC(=O)CCSCc1ccccc1F | 2%
31 | 2% | -2 | 3.6% | Clc1ccccc1-c1cc(COc2ccc3ccccc3c2)no1 | 4%
32 | -21% | . | 0.1% | O=C(O)CSc1c2c(nc3cc(C(=O)Nc4cccc(C(F)(F)F)c4)ccc13)CCCC2 | -3%
33 | 10% | 5 | -2.6% | CCOc1ccc(N2C(N)=NC(N)=NC2(C)C)cc1 | -8%
34 | -1% | . | -0.9% | S=c1[nH]nc(-c2ccccc2)n1/N=C/c1cccc(Cl)c1 | -1%
35 | 11% | . | 0.6% | COc1ccc2[nH]c3c(c2c1)CCN1C(=O)C(CC(=O)NCc2cccc(C(F)(F)F)c2)C[C@H](C(=O)N(C(C)C)C(C)C)[C@@]31C (some centres not stated) | .
36 | -4% | . | ? | COc1ccc(OC)c(/C=C/C(=O)OCC(=O)NCc2cccs2)c1 | .
37 | 1% | 3 | ? | O=C(CCO)c1ccc(O)cc1 | 3%
38 | 17% | -29 | 2.0% | Cc1c(-c2n[nH]c(=S)n2-c2ccc(C(F)(F)F)cc2)nnn1-c1ccccc1 | -15%
39 | 2% | -15 | -0.2% | O=C(NC(=S)NCc1cccnc1)c1ccccc1 | -8%
40 | 27% | . | 5.8% | CC(C)C[C@@H](CN1CCCC1CN1C(=S)NC[C@@H]1Cc1ccc(O)cc1)N1C[C@H](Cc2ccccc2)N(CCc2ccccc2)C1=S (some centres not stated) | .
41 | 19% | . | -2.1% | CCOC(=O)c1oc2ccccc2c1COC(=O)C(C)NC(=O)c1ccco1 (configuration not stated) | .
42 | -21% | . | ? | CC(=O)Oc1ccc(C2=Cc3ccc(OC(C)=O)cc3OC2C)cc1 (configuration not stated) | .
43 | 3% | 4 | -4.1% | CCCCN1CCc2c([nH]c3c(C)cccc23)C1=O | -46%
44 | -15% | 0 | -2.4% | CCOC(=O)C1(CCCc2ccccc2)CCN(C(=O)CN2CCOC2=O)CC1 | -6%
45 | -4% | . | 2.3% | C=CC[C@H](CC(=O)N(CCO)Cc1ccccc1)C(=O)NC[C@H](OC(=O)[C@@H](CC=C)Cc1ccc(F)cc1)c1ccccc1 | .
46 | 10% | . | -3.9% | COc1ccc(C(=O)CCN2CCC(C)CC2)cc1 | 5%
47 | 12% | 3 | 1.5% | CC1CCN(C(=O)Cc2nn(C)c(=O)c3ccccc23)CC1 | 0%
48 | 13% | -6 | -8.4% | COc1ccc(/C(C)=C2\SC(=S)N(CCC(=O)O)C2=O)cc1 | -2%
49 | -3% | . | 5.0% | COc1ccccc1C(=O)Nc1ccc(S(=O)(=O)N2CCC(C)CC2)cc1 | 7%
50 | -1% | . | -1.8% | Cc1cc(C)n2nc(SCC(=O)N3CCC(C)CC3)nc2n1 | .

# 2 entries drawn at random from those above:
entry | Rango dissoc inh | GLA inh pH 4.5 | Rango-impB inh | SMILES | miR-21 FLuc
50 | -1% | . | -1.8% | Cc1cc(C)n2nc(SCC(=O)N3CCC(C)CC3)nc2n1 | .
35 | 11% | . | 0.6% | COc1ccc2[nH]c3c(c2c1)CCN1C(=O)C(CC(=O)NCc2cccc(C(F)(F)F)c2)C[C@H](C(=O)N(C(C)C)C(C)C)[C@@]31C (some centres not stated) | .

# (next part)
entry | Rango dissoc inh | GLA inh pH 4.5 | Rango-impB inh | SMILES | miR-21 FLuc
51 | -10% | -4 | 1.9% | CCOC(=O)C(=CNc1ccc(NC2=NCC(C)S2)cc1)C(=O)OCC (configuration not stated) | 30%
52 | -14% | . | 0.3% | COc1ccc(N(CC(=O)Nc2cccc(F)c2)S(=O)(=O)c2c(C)[nH]c(=O)[nH]c2=O)cc1 | 0%
53 | 7% | 5 | 5.6% | CCC(C)OC(=O)C[N+](C)(C)CCOC1CC2CCC1(C)C2(C)C (configuration not stated) | 19%
54 | -3% | 3 | 0.1% | Cc1cccc(C)c1N1CCN(S(=O)(=O)c2ccccc2)CC1 | 4%
55 | -1% | 6 | -0.1% | COC(c1ccccc1)c1nnc(CCC(=O)N(C)Cc2cccc(-n3cccn3)c2)o1 (configuration not stated) | -50%
56 | 1% | -7 | -1.6% | Cc1ccc([N+](=O)[O-])c(C(=O)N/N=C/c2cccs2)c1 | -16%
57 | -4% | . | -7.5% | CCCCn1c(=O)[nH]c(=O)c2c1nc(-c1cc(Br)ccc1OC)n2C | 0%
58 | 6% | ? | -1.8% | CCN(CC)C(=O)c1ccc(Cn2cc([N+](=O)[O-])cn2)o1 | -6%
59 | 6% | . | -2.2% | COCc1ccc(CN2CCC(N3CCC(C(=O)N4CCCC4)CC3)CC2)o1 | -2%
60 | 14% | . | -0.4% | CCOc1ccc(C(=O)C(C)=O)c(OCC)c1 | 3%
61 | 10% | 2 | -4.4% | Fc1ccc(CNCc2cccc(Br)c2)cc1 | -11%
62 | -12% | . | 3.9% | Cc1ccc(N(C(=O)CNC(=O)c2ccco2)C(C(=O)NCC2CCCO2)c2ccccc2)cc1C (configuration not stated) | 8%
63 | 36% | -2 | -0.6% | CN(C)C(=O)N1CCC(C(=O)N2CCCC(C(=O)c3ccc(C(C)(C)C)cc3)C2)CC1 (configuration not stated) | -2%
64 | 7% | 3 | 7.5% | COc1ccccc1NCCC#N | -5%
65 | 6% | 0 | 0.1% | Cc1ccc(NC(=S)N2CCC(O)CC2)c(C)c1 | 4%
66 | -11% | 3 | 0.3% | COC(=O)c1c(NC(=O)/C=C/c2ccc3c(c2)OCO3)sc(C)c1C | -19%
67 | 0% | -1 | 5.7% | CCC(C)c1ccccc1NC(=O)c1cccnc1 (configuration not stated) | -8%
68 | ? | . | 4.9% | O=C(NNC(=O)c1ccccc1F)C1=NN(c2ccccc2)C(=O)CC1 | 0%

# Part of the list above, set out differently.
No.	Rango dissoc inh	GLA inh pH 4.5	Rango-impB inh	miR-21 FLuc	Structure
23	2%	2	-0.7%	-1%	CC(C)NC(=O)c1ccc(-c2ccc(Cl)c(C(F)(F)F)c2)o1
20	-3%	-4	-0.2%	-6%	CC1=C(C(=O)N2CCN(C(=O)c3ccco3)CC2)C2(CCC(C)CC2)OC1=O (configuration not stated)
31	2%	-2	3.6%	4%	Clc1ccccc1-c1cc(COc2ccc3ccccc3c2)no1
10	9%	.	1.4%	21%	Cc1cc(C)cc(OCCNC(=O)c2cc(S(=O)(=O)N3CCOCC3)ccc2F)c1
